Compound activity as filed in PubChem BioAssay.
A1 inh – blocks A1 activity. MEF A1-2A-BIM cells, caspase-Glo luminescence, 3 h; percent of clofoctol signal, DMSO as zero. caspase activation, % (concentration not given with the values). actives 0.51% (n = 21,000). AID 2241;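 active means most replicate scores above 10, or exactly half above 10 with mean activity above 10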;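 further: effector caspase 3 and 7 activity cleaving a DEVD luciferin substrate; 50 nL library stock added to about 30 µL; numbers are from one replicate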
BJeLR viability – compounds reducing viability of BJeLR cells; BJeLR fibroblasts viability, CellTiterGlo ATP luminescence, 48 h; HRASV12, hTERT and SV40 LT/ST transformed; viability loss activity score, % (test concentration not listed); actives 0.64% (n = 30,000); in the data active means viability loss activity score above about 50%; about a fifth of its hits are not listed in these tables;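 further: higher score means fewer live cells and less ATP luminescence; stock transfer was 50 or 100 nL into about 30 µL; 0% = vehicle wells and 100% = a reference killing control; one replicate is shown; the record names a cut of 85%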
* = called active by the depositor; x = no result given; & = joins results of further samples.

Structure,A1 inh,BJeLR viability
C[C@@H]1CN([C@H](C)CO)C(=O)c2cccc(NC(=O)Nc3ccc(F)cc3)c2O[C@H]1CN(C)Cc1ccncc1,x,-5.9
COc1cccc(OC)c1C(=O)N1CCCN(c2nc3ccc(Cl)cc3s2)CC1,x,-0.4
CC(C)(C)c1cc(Sc2nc(N3CCOCC3)nc(N3CCOCC3)n2)cc(C(C)(C)C)c1O,-0.5,-2.8
C[C@H]1CN([C@@H](C)CO)C(=O)c2cc(NC(=O)NC3CCCCC3)ccc2O[C@H]1CN(C)C(=O)Nc1cccc2ccccc12,-0.5,4.6
C[C@@H]1CN([C@@H](C)CO)C(=O)c2cccc(NC(=O)c3ccncc3)c2O[C@H]1CN(C)S(=O)(=O)c1cccs1,x,1.9
C[C@H]1CN([C@@H](C)CO)C(=O)c2cc(NC(=O)Nc3ccc(C(F)(F)F)cc3)ccc2O[C@H]1CN(C)C(=O)Nc1ccc2c(c1)OCO2,0.6,-4.0
COC(=O)[C@@H]1C[C@@]23C=CC[N+]4([O-])CC[C@@]5(c6ccccc6N[C@@]15C2C)[C@H]34 (some centres undefined),1.2,-6.1
CCOc1ccc(NC(=O)C2CCN(C(=O)c3ccccc3)CC2)cc1,0.5,5.0
C=CCn1cc(/C=C2/NC(=O)N(c3ccccc3)C2=O)c2ccccc21,2.1,-2.2
CCC(Sc1nc(C)cc(=O)[nH]1)C(=O)Nc1ccc(Cl)cn1 (centres undefined),x,-3.6
O=C(CSc1nc2ccccc2c(=O)n1NC(=O)c1ccccc1)NCc1ccccc1,-0.6,-1.6
Cn1c(CSC2CN(C(c3ccccc3)c3ccccc3)C2)n[nH]c1=S,0.5,-0.9
COc1ccc(NC(=O)Nc2ccc3c(c2)C(=O)N([C@H](C)CO)C[C@H](C)[C@@H](CN(C)Cc2ccc(C(=O)O)cc2)O3)cc1,0.3,3.4
CCC1CCCCN1C(=O)CSc1nc2c(c(=O)n1Cc1ccccc1)SC(C)C2 (centres undefined),x,5.7
COc1ccc(NC(=O)N(C)C[C@H]2Oc3ccc(NS(=O)(=O)c4ccc(F)cc4)cc3C(=O)N([C@@H](C)CO)C[C@@H]2C)cc1,-0.3,4.2
CCC(C)NC(=O)c1c[nH]c2ccc(S(=O)(=O)N(C)c3cc(C)ccc3C)cc2c1=O (centres undefined),0.6,6.8

Not a retest: two of the compounds above.
Structure,A1 inh,BJeLR viability
COc1ccc(NC(=O)N(C)C[C@H]2Oc3ccc(NS(=O)(=O)c4ccc(F)cc4)cc3C(=O)N([C@@H](C)CO)C[C@@H]2C)cc1,-0.3,4.2
CCC(C)NC(=O)c1c[nH]c2ccc(S(=O)(=O)N(C)c3cc(C)ccc3C)cc2c1=O (centres undefined),0.6,6.8

2 entries from above, set out differently:
The line under a structure holds: A1 inh, BJeLR viability
C[C@@H]1CN([C@H](C)CO)C(=O)c2cccc(NC(=O)Nc3ccc(F)cc3)c2O[C@H]1CN(C)Cc1ccncc1
  x, -5.9
COc1cccc(OC)c1C(=O)N1CCCN(c2nc3ccc(Cl)cc3s2)CC1
  x, -0.4

More compounds.
Structure,A1 inh,BJeLR viability
Cc1cc(C)c2c(n1)nn1c(C)c(CCC(=O)NCCc3ccccc3)c(C)nc21,-0.3,-0.9
C[C@H]1CN([C@@H](C)CO)C(=O)c2cc(NC(=O)c3ccncc3)ccc2O[C@@H]1CN(C)Cc1ccc(C(=O)O)cc1,1.2,0.8
C[C@@H]1CN([C@H](C)CO)C(=O)c2cccc(NS(=O)(=O)c3ccc(F)cc3)c2O[C@@H]1CN(C)C(=O)Nc1cccc2ccccc12,x,-1.2
C[C@@H]1CN([C@H](C)CO)C(=O)c2cccc(NC(=O)c3nc4ccccc4s3)c2O[C@@H]1CN(C)S(=O)(=O)c1ccc(F)cc1,x,10.6
C[C@@H]1CN([C@H](C)CO)C(=O)c2cc(NC(=O)Cc3cn(C)c4ccccc34)ccc2O[C@@H]1CN(C)Cc1ccc(C(=O)Nc2ccccc2N)cc1,x,3.7
CCCc1c(C(=O)NC2CCN(Cc3ccccc3)CC2)cnn1-c1ccccc1,0.3,4.1
CS(=O)(=O)N(CCC#N)Cc1ccco1,0.6,2.8
CC1OC(OC(=O)C2=CC3CC(C)(C)CC34C(C)OC(=O)CC24)C(O)C(O)C1O (centres undefined),0.1,-6.6
Cc1ccc(S(=O)(=O)N(C)C[C@H]2Oc3ccc(NC(=O)NC(C)C)cc3C(=O)N([C@H](C)CO)C[C@H]2C)cc1,0.3,5.7
C[C@H]1CN([C@@H](C)CO)C(=O)c2cc(NC(=O)C3CCCCC3)ccc2O[C@@H]1CN(C)Cc1ccccc1,0.1,-1.6
O=C(O)c1nn(-c2ccccc2)c2c1CCc1occc1-2,0.3,3.0
COc1ccc(C2CC(c3cccs3)=NN2C(=O)CSc2nc3ccccc3s2)cc1 (centres undefined),-0.1,-0.7
C[C@@H]1CN([C@H](C)CO)C(=O)c2cccc(NC(=O)c3cnccn3)c2O[C@H]1CN(C)S(=O)(=O)c1ccc(F)cc1,x,0.7
Cc1noc(C)c1S(=O)(=O)Nc1ccc2c(c1)C(=O)N([C@@H](C)CO)C[C@H](C)[C@@H](CN(C)C(=O)NC(C)C)O2,0.2,1.0
COc1ccc(S(=O)(=O)Nc2cccc3c2O[C@H](CN(C)Cc2ccc4c(c2)OCO4)[C@H](C)CN([C@@H](C)CO)C3=O)cc1,x,-2.4
Cc1nc2c(=O)oc3ccccc3c2n1-c1ccccc1,-0.3,1.6
CC1CCCCN1C(=O)N1CCOCC1 (centres undefined),-0.2,-2.1
C[C@@H]1CN([C@@H](C)CO)C(=O)c2cccc(NS(=O)(=O)c3ccccc3)c2O[C@@H]1CN(C)S(=O)(=O)c1cccs1,x,-6.0
COc1ccc(C(OC(=O)c2ccccc2)c2nccc3ccccc23)cc1 (centres undefined),0.3,1.2
C/C=C1/[C@H](O[C@@H]2O[C@H](CO)[C@@H](O)[C@H](O)[C@H]2O)OC=C(C(=O)OC)[C@H]1CC(=O)OCCc1ccc(OC(=O)C[C@@H]2C(C(=O)OC)=CO[C@@H](O[C@@H]3O[C@H](CO)[C@@H](O)[C@H](O)[C@H]3O)/C2=C/C)cc1,-0.7,0.7
CC(C)NC(=O)Nc1cccc2c1O[C@H](CN(C)C)[C@H](C)CN([C@H](C)CO)C2=O,x,-4.6
COc1cc2c(cc1OC)[C@@H]1C(=O)c3ccc4c(c3O[C@@H]1CO2)C=CC(C)(C)O4,-0.5,5.3
C[C@H](CO)N1C[C@H](C)[C@@H](CN(C)Cc2ccc(C(=O)Nc3ccccc3N)cc2)Oc2ccc(NS(=O)(=O)c3cccs3)cc2C1=O,x,-0.8
Cc1ccc(C(=O)OCC2OC3C(Oc4c(C)c(=O)ncn43)C2OC(=O)c2ccc(C)cc2)cc1 (centres undefined),-0.6,-7.1
C=CCNc1nc2ccccn2c(=O)c1/C=C1\SC(=S)N(Cc2ccc3c(c2)OCO3)C1=O,x,13.5
C[C@@H]1CN([C@H](C)CO)C(=O)c2cccc(NC(=O)c3ccncc3)c2O[C@@H]1CN(C)S(=O)(=O)c1ccc(Cl)cc1,x,5.0
CCOC(=O)c1ccccc1NC(=S)N1CC(C)CC(C)C1 (centres undefined),x,-6.8
CC(=O)Nc1cc(C(=O)NCCN(C)C)ccc1Sc1ccc(Cl)cc1,0.4,0.8
CSC(=O)OCC1=C[C@@H]2OC(=O)C3=CO[C@@H](O[C@@H]4O[C@H](CO)[C@@H](O)[C@H](O)[C@H]4O)[C@H]1[C@@H]32,-0.9,-0.3
Cc1noc(C)c1NC(=O)N(C)C[C@H]1Oc2c(NS(=O)(=O)c3ccc(Cl)cc3)cccc2C(=O)N([C@H](C)CO)C[C@@H]1C,x,4.0
C[C@H](CO)N1C[C@H](C)[C@H](CN(C)Cc2ccncc2)Oc2c(NC(=O)Nc3cccc4ccccc34)cccc2C1=O,x,1.3
OC1(C(F)(F)F)CC(/C=C/c2ccccc2)=NO1 (centres undefined),-3.8,0.7

Continuation.
| molecule | A1 inh | BJeLR viability |
| --- | --- | --- |
| O=C(Nc1ccccc1)C(Cc1ccccc1)N1C(=O)C2C3C=CC(C3)C2C1=O (centres undefined) | 0.2 | -12.7 |
| CN/C=C1\C(=O)C(C)(C)Oc2ccc3ccc(=O)oc3c21 | x | 2.4 |
| C[C@H]1CN([C@@H](C)CO)C(=O)c2cc(NS(=O)(=O)c3cn(C)cn3)ccc2O[C@H]1CN(C)Cc1ccccc1 | 0.3 | 4.9 |
| CCCn1c(=O)c2[nH]c(C3CCCC3)nc2n(CCC)c1=O | -0.2 | -10.3 |
| C[C@H]1CN([C@@H](C)CO)C(=O)c2cc(NC(=O)Nc3ccc(F)cc3)ccc2O[C@@H]1CN(C)C(=O)Nc1cccc2ccccc12 | 0.1 | 0.0 |
| CCOc1ccc2c(=O)c(Oc3ccc(OC)cc3)coc2c1 | 0.5 | 1.4 |
| CCOc1ccc(NC(=O)NC23CC4CC(CC(C4)C2)C3)cc1 | 0.1 | 2.6 |
| C[C@H](CO)N1C[C@H](C)[C@@H](CN(C)CC2CCCCC2)Oc2c(NS(C)(=O)=O)cccc2C1=O | x | -1.9 |
| O=C(Cc1c(F)cccc1Cl)Nc1ccc2nc3n(c(=O)c2c1)CCCCC3 | -0.2 | 0.6 |
| C[C@H]1CN([C@@H](C)CO)C(=O)c2cccc(NC(=O)Nc3ccccc3)c2O[C@@H]1CN(C)C(=O)Nc1ccc(F)cc1 | x | 1.6 |
| O=C(N/C(=C\c1ccc2c(c1)OCO2)C(=O)N1CCOCC1)c1ccccc1Cl | 1.0 | -6.2 |
| C[C@H]1CN([C@@H](C)CO)C(=O)c2cccc(NC(=O)c3cnccn3)c2O[C@H]1CN(C)Cc1ccc(Cl)c(Cl)c1 | x | -1.4 |
| CN(C)CCCN1c2ccccc2CCc2ccc(Cl)cc21 | 1.0&1.1 | -14.2&-1.4 |
| C[C@H]1CN([C@@H](C)CO)C(=O)c2cccc(NS(=O)(=O)c3cccs3)c2O[C@@H]1CN(C)C(=O)Nc1ccc(F)cc1 | x | 1.0 |
| C[C@H](CO)N1C[C@H](C)[C@@H](CN(C)Cc2ccc(Cl)c(Cl)c2)Oc2c(NC(=O)C3CC3)cccc2C1=O | x | -2.0 |
| Cc1ccc(OCC(=O)Nc2cc(-c3nn(C)c(=O)c4ccccc34)ccc2N2CCOCC2)cc1 | -0.3 | -0.5 |
| C[C@@H]1CN([C@@H](C)CO)C(=O)c2cccc(NS(=O)(=O)c3ccc(Cl)cc3)c2O[C@H]1CN(C)S(=O)(=O)c1cccs1 | x | -0.9 |
| C[C@@H]1CN([C@@H](C)CO)C(=O)c2cc(NS(C)(=O)=O)ccc2O[C@H]1CN(C)S(=O)(=O)c1ccc(F)cc1 | 0.3 | 0.9 |
| CC(=O)N(Cc1ccc(C(C)C)cc1)c1ccc2oc(-c3ccccc3)nc2c1 | 0.4 | -3.7 |
| CCCCN1COc2ccc(CCNC(=O)c3ccc(Cl)cc3)cc2C1 | 0.1 | 4.4 |
| COc1ccc(CC2CCc3ncc(C)cc3C2)cc1 (centres undefined) | -0.1 | 0.6 |
| C[C@@H]1CN([C@@H](C)CO)C(=O)c2cccc(NS(=O)(=O)c3ccc(F)cc3)c2O[C@@H]1CN(C)Cc1ccc(C(F)(F)F)cc1 | x | -2.3 |
| CCOc1ccc(-n2c(=O)c3sccc3n(CC(=O)Nc3cccc(C(F)(F)F)c3)c2=O)cc1 | x | -12.3 |
| C[C@H]1CN([C@@H](C)CO)C(=O)c2cccc(NC(=O)NC3CCCCC3)c2O[C@H]1CN(C)S(C)(=O)=O | x | 3.4 |
| COc1c(NC(=O)N2CC(C)OC(C)C2)csc1Cl (centres undefined) | -0.1 | 2.0 |
| COc1cc([C@@H](O)[C@@H](CO[C@@H]2O[C@H](CO)[C@@H](O)[C@H](O)[C@H]2O)Oc2ccc(/C=C/CO)cc2OC)ccc1O | -0.3 | 5.2 |
| CC1CC[C@@]2(OC1)O[C@H]1CC3C4CC=C5C[C@@H](O[C@@H]6O[C@H](CO)[C@@H](O[C@@H]7O[C@@H](C)[C@H](O)[C@@H](O)[C@H]7O)[C@H](O)[C@H]6O[C@@H]6O[C@@H](C)[C@H](O)[C@@H](O)[C@H]6O)CC[C@]5(C)C4CC[C@]3(C)[C@@]1(O)[C@@H]2C (some centres undefined) | -2.6 | 92.0* |
| C[C@H](CO)N1C[C@H](C)[C@@H](CN(C)S(=O)(=O)c2ccccc2)Oc2ccc(NS(=O)(=O)c3ccccc3)cc2C1=O | -0.1 | -1.9 |
| COc1ccc(CN(C)C[C@H]2Oc3ccc(NC(=O)c4ccncc4)cc3C(=O)N([C@@H](C)CO)C[C@@H]2C)cc1 | -0.4 | -2.1 |
| CC(C)CCNC(=O)c1ccc2c(=O)n3c(nc2c1)CCCCC3 | -0.4 | -2.3 |

Gathered by group: those above containing a COOH group.
| molecule | A1 inh | BJeLR viability |
| --- | --- | --- |
| COc1ccc(NC(=O)Nc2ccc3c(c2)C(=O)N([C@H](C)CO)C[C@H](C)[C@@H](CN(C)Cc2ccc(C(=O)O)cc2)O3)cc1 | 0.3 | 3.4 |
| C[C@H]1CN([C@@H](C)CO)C(=O)c2cc(NC(=O)c3ccncc3)ccc2O[C@@H]1CN(C)Cc1ccc(C(=O)O)cc1 | 1.2 | 0.8 |
| O=C(O)c1nn(-c2ccccc2)c2c1CCc1occc1-2 | 0.3 | 3.0 |

The listing continues:
| molecule | A1 inh | BJeLR viability |
| --- | --- | --- |
| C[C@H]1CN([C@@H](C)CO)C(=O)c2cccc(NC(=O)Nc3cccc4ccccc34)c2O[C@H]1CN(C)Cc1ccc2c(c1)OCO2 | x | 0.7 |
| S=C(Nc1ccccn1)Nc1ccccn1 | -2.7 | -2.0 |
| CCCN(CCC)Cc1c(O)ccc2c(=O)c(-c3ccccc3)coc12 | x | 3.3 |
| Cc1c(C(=O)Nc2ccccc2)cnn1-c1ccc(F)cc1 | -5.1 | 0.2 |
| O=C(O)CNC(=O)CSc1ccc(Cl)cc1 | -1.3 | -10.2 |
| CCOC(=O)c1c(N)n(C2CCCCC2)c2nc3ccccc3nc12 | 0.2 | -7.8 |

This is a subset; count on the stated rates, not on these rows.
